Arbovirus inh: antivirals against arbovirus infection, primary screen, cell-based, full library, 10K replicate subset; 200,000 tested, 0.37% active; AID 1251, 2008; arbovirus infection cell-based antiviral screen; inhibition, % at 10 µM;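 active = inhibition from about 30%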;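 also: bluetongue infection of BSR cells; cell survival read as ATP light after 72 h; 0% = infected wells without compound and 100% = uninfected wells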
YopH inh: YopH tyrosine phosphatase inhibitors, primary screen, biochemical, fluorescence Ex485/Em525. inhibition, %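 (about 10 µM by stock and volumes)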. 140,000 tested, 0.16% active;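 active = inhibition of 50% or more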;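 also: controls were vehicle for no effect and minimum signal wells for full effect; inactives centre near -20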
RecA splice inh: Mtb RecA intein splicing inhibitors, primary screen, biochemical, fluorescence, HTS. Protein RecA (Mycobacterium tuberculosis (strain ATCC 25618 / H37Rv)), P9WHJ3. 290,000 tested, 0.75% active. cell-free RecA intein splicing. inhibition, %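 (about 9 µM by stock and volumes)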; in the data active = inhibition above about 30%; inconclusive = no clear call, values can overlap the other calls;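 also: 0% = vehicle wells and 100% = reference inhibitor control wells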
Target sequence (P9WHJ3 whole entry, looked up, canonical isoform): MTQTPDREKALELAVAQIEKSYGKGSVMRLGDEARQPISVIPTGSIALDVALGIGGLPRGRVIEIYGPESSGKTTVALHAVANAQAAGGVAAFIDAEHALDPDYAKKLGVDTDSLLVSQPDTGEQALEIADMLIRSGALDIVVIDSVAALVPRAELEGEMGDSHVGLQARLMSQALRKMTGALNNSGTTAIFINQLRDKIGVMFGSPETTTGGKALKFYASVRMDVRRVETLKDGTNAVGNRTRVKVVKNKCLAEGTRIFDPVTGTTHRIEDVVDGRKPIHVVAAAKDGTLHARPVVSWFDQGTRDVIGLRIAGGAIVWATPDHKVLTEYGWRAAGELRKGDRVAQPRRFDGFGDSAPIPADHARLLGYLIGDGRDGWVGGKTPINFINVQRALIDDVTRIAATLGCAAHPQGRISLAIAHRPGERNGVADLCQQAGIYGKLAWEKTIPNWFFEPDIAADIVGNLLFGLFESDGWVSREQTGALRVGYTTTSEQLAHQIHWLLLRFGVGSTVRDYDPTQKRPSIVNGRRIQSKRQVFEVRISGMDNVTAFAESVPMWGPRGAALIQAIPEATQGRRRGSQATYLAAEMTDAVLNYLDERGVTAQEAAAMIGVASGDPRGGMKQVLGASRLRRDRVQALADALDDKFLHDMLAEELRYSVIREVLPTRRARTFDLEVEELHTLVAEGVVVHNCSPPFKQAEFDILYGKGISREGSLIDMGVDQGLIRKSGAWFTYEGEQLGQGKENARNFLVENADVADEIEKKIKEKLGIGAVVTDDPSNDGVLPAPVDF
Mtb H37Rv: M. tuberculosis H37Rv growth inhibitors, H37Rv strain (AID 1626). M. tuberculosis H37Rv growth inhibition; higher % means a stronger effect. inhibition, % at 10 µM, or IC50 in µM where a hit was titrated. 220,000 tested, 0.95% active;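 active = confirmed in a dose series; inconclusive = inhibition above 80% but not taken into the dose series; inactive = below 80% or under 30% at every dose of the series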;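 also: bacteria incubated seven days before Alamar blue readout; 0% = bacteria only wells and 100% = bacteria with antibiotic wells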
Mtb bLac sens: beta-lactam sensitization of Mtb H37Rv, H37Rv; AID 434955, 2010; inhibition, % at 25 µM; M. tuberculosis H37Rv growth with meropenem, percent inhibition; hits of this screen are not shown here; 330,000 tested, 0.27% active;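 active = about 74% or more and at least 40 points above the plate without the antibiotic, then above 30% in a dose series; inconclusive = first-round hits that could not be retested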;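 also: growth measured after seven days incubation then overnight dye step; 0% = bacteria only wells and 100% = bacteria with antibiotic; twin plates without the antibiotic show which effects depend on it; some results filed as inactive read as strong as hits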
Arbovirus inh repeat: also measured in Arbovirus inh; calls as there; inhibition, %; measured here: 10K subset replicate screen; many hits read low in the repeat;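 first of two repeat runs on a subset; 0% = infected and 100% = uninfected wells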
Starred values were filed as active, the others as inactive; ? = inconclusive; nt = no result given; & = joins results of further samples.

SMILES	Arbovirus inh	YopH inh	RecA splice inh	Mtb H37Rv	Mtb bLac sens	others
NC(=O)C(CC(=O)O)NC(=O)[C@@H]1CCOc2c(I)cc([N+](=O)[O-])cc2C(=O)N[C@@H](CO)C(=O)N[C@@H](Cc2ccc(O)cc2)C(=O)N1 (stereo partly drawn)	5	-19	nt	-5%	-7
O=C(NCc1ccccc1)C(c1ccco1)N(C(=O)c1cnccn1)c1ccc(F)cc1 (stereo not drawn)	-6	17	-4.0	nt	-1
CCOC(=O)c1ccc(NC(=O)C2=C(C)Nc3nc(CCCO)nn3C2c2ccc(OC)cc2)cc1 (stereo not drawn)	-6	-31	2.1	9%	74
CC(=O)Oc1c(C)cc(O)c2ccccc12	-32	3	-1.5	-8%	3
COc1ccc(C2=NOC(C(=O)Nc3cc(C)on3)C2)cc1 (stereo not drawn)	8	-8	1.2	13%	-3
CC(C)CN1CCC(=O)N([C@H](COc2ccccc2)c2ccccc2)CC1	nt	nt	6.6	nt	-6
Cc1nc(C)c(CC(=O)N/N=C/c2ccc(O)cc2)c(=O)[nH]1	-3	-17	-1.2	-6%	-3
Cc1ccc(Cn2nnc3c(=O)[nH]c(C4CCN(C(=O)Cc5cccs5)CC4)nc32)cc1	-5	-45	1.3	4%	12
COc1cccc2[nH]c3c(N4CC(C)CC(C)C4)ncnc3c12 (stereo not drawn)	6	-12	0.2	nt	nt
COC(=O)C(NC(=O)c1ccco1)(Nc1ccc(Br)cn1)C(F)(F)F (stereo not drawn)	3	-44	2.8	-19%	9
COc1cccc(CC(NC(C)=O)C(=O)NC2CCN(c3c4c(nc5ncnn35)CCC4)CC2)c1OC (stereo not drawn)	1	nt	-0.1	-5%	2
Cc1ccccc1CSc1nc2n(n1)C(c1cccs1)C1=C(CCCC1=O)N2 (stereo not drawn)	-16	-8	2.8	7%	-13
N#C/C(=C/c1cn(-c2ccccc2)nc1-c1cccc(S(=O)(=O)N2CCOCC2)c1)C(=O)NCc1ccco1	1	-34	-5.3	7%	6
CCCN1CCN(CCCNC(=O)c2ccc3nc(N4CCC(C)CC4)sc3c2)CC1	nt	nt	0.3	nt	-7
CCOCCCNC(=O)c1cn(C)c2ccc(S(=O)(=O)N3CCCCC3)cc2c1=O	nt	nt	-1.3	nt	-11
NC(=O)C1=C[C@@H](c2csc3ccccc23)C[C@@H](OCc2ccc(CO)cc2)O1	nt	nt	6.1	3%	5
O=C(CCCCCN1C(=O)c2ccccc2C1=O)Nc1ccc(F)cc1	-4	-21	0.9	0%	-9
CCc1c(O)c(-c2ccccc2)c(=O)n(-c2ccccn2)c1-c1ccccc1	nt	nt	-3.3	7%	8
COc1cc(C2/C(=C(/O)c3ccc(F)cc3)C(=O)C(=O)N2CCCC(=O)O)ccc1O (stereo not drawn)	2	7	-2.8	-7%	83
CCC(=O)Nc1cccc(-c2nc3ccccc3o2)c1	-6	7	1.1	12%	4
CCS(=O)(=O)C1=NN2C(=N)/C(=C\c3ccc(SCc4ccco4)o3)C(=O)N=C2S1	29	nt	13	7%	nt
O=C(c1ccc([N+](=O)[O-])cc1)N(c1ccccn1)c1ccccn1	1	nt	-1.4	1%	-1
COc1ccc2c(c1)CC(N1CCN(C)CC1)c1cc(OC)ccc1S2 (stereo not drawn)	nt	nt	1.2	nt	2
CN(Cc1ccccc1F)C(=O)CNC(=O)Cc1cccc2ccccc12	nt	nt	-0.7	nt	1
c1ccc(-c2cnnn2-c2ccccc2)cc1	nt	nt	-0.8	nt	0

An excerpt from the list above, as a working copy:
SMILES	Arbovirus inh	YopH inh	RecA splice inh	Mtb H37Rv	Mtb bLac sens	others
CN(Cc1ccccc1F)C(=O)CNC(=O)Cc1cccc2ccccc12	nt	nt	-0.7	nt	1
c1ccc(-c2cnnn2-c2ccccc2)cc1	nt	nt	-0.8	nt	0

Remaining list, next part:
SMILES	Arbovirus inh	YopH inh	RecA splice inh	Mtb H37Rv	Mtb bLac sens	others
COC(=O)CSCC(=O)Nc1cc2c(cc1C(C)=O)OCO2	-2	-19	-2.3	-8%	-10
CC(C)N(Cc1nc(-c2ccccc2)no1)C(=O)c1ccc(Cl)cc1	-6	-39	4.5	3%	8	Arbovirus inh repeat=-16
O=C(Nc1ccccc1)Nc1ccc(Cl)c(S(=O)(=O)N2CCOCC2)c1	15	nt	3.9	-1%	4
Cc1cc(C)nc(SCc2csc(N)n2)n1	3	-9	2.0	-5%	6	Arbovirus inh repeat=1
O=C(CN(Cc1ccccc1)S(=O)(=O)c1ccc(F)cc1)NCc1cccnc1	nt	nt	0.8	nt	?
Cc1cc(C)c(S(=O)(=O)NCc2ccccn2)c(C)c1	nt	nt	-5.2	nt	-4
COc1ccc(S(=O)(=O)NC2CCc3ccccc32)cc1OC (stereo not drawn)	nt	nt	1.3	nt	4
Cc1cc(C)cc(OCC(O)CN2CCN(Cc3ccc4c(c3)OCO4)CC2)c1 (stereo not drawn)	-8	nt	-0.9	0%	2
COc1ccc(C(NC(=O)c2cccnc2)c2cc(Cl)c3cccnc3c2O)cc1OC (stereo not drawn)	-27	-16	-0.3	-8%	-7
Cn1c(=O)oc2cc(S(=O)(=O)NCCC(=O)N3CCN(c4ccccc4)CC3)ccc21	nt	nt	0.6	nt	-3
CCN(C(=O)COC(=O)c1cc(-c2ccc(C)o2)nc2ccccc12)C1CCS(=O)(=O)C1 (stereo not drawn)	-6	nt	-41	2%	-2
CCC1=NN2C(=N)/C(=C\c3ccc(OCCOc4ccc(NC(C)=O)cc4)cc3)C(=O)N=C2S1	nt	nt	-0.1	nt	-2
COc1cccc2c1nc(C)c1cc(C)oc12	1	-9	-1.1	5.7µM*	66
O=C(O)c1ccccc1C(=O)N1CCN(c2ccccc2)CC1	4	-42	0.6	-4%	-7
COc1ccc(C(=O)Nc2oc(-c3ccccc3)c(-c3ccccc3)c2C#N)cc1	-13	15	-0.7	32%	84
COc1cc([N+](=O)[O-])ccc1NC(=O)CSc1n[nH]c(C(C)C)n1	19	nt	-0.1	5%	-3
Oc1ccc(-c2c(-c3ccsc3)sc3ccccc23)cc1	nt	nt	29	nt	2
CCCc1nnc(NC(=O)C2CCCO2)s1 (stereo not drawn)	6	-19	nt	5%	-5
Cc1ccc(/C=N/N=C2/NC(=O)C(CC(=O)N3CCOCC3)S2)cc1 (stereo not drawn)	2	nt	-0.4	-11%	0
COc1ccc(OCc2nnc(SC(C)C(=O)Nc3nccs3)n2-c2ccccc2)cc1 (stereo not drawn)	-1	-16	0.0	5%	-13
Cc1ccc(-c2csc3ncnc(Nc4ccc(N5CCOCC5)cc4)c23)cc1	-29	-2	12	67%	96
COc1cc(OC)c(OC)cc1/C=N/Nc1ccc(Cl)nn1	nt	nt	-2.5	nt	4
COc1ccc(/C=C/C(=O)C2CC2)cc1Cn1nc(C)c([N+](=O)[O-])c1C	4	nt	0.7	5%	3
O=C(CCN1CCOCC1)N1CCc2c([nH]c3ccccc23)C1c1cccc(Cl)c1 (stereo not drawn)	7	nt	6.7	2%	-5
O=C(CSCc1cccc(Br)c1)N=Nc1c(O)[nH]c2ccccc12	-2	-4	-0.8	-9%	2

Fetched one by one from above, five records:
SMILES	Arbovirus inh	YopH inh	RecA splice inh	Mtb H37Rv	Mtb bLac sens	others
CCN(C(=O)COC(=O)c1cc(-c2ccc(C)o2)nc2ccccc12)C1CCS(=O)(=O)C1 (stereo not drawn)	-6	nt	-41	2%	-2
CCC(=O)Nc1cccc(-c2nc3ccccc3o2)c1	-6	7	1.1	12%	4
O=C(CCN1CCOCC1)N1CCc2c([nH]c3ccccc23)C1c1cccc(Cl)c1 (stereo not drawn)	7	nt	6.7	2%	-5
COc1cccc(CC(NC(C)=O)C(=O)NC2CCN(c3c4c(nc5ncnn35)CCC4)CC2)c1OC (stereo not drawn)	1	nt	-0.1	-5%	2
Cc1ccc(/C=N/N=C2/NC(=O)C(CC(=O)N3CCOCC3)S2)cc1 (stereo not drawn)	2	nt	-0.4	-11%	0

Going on with the list:
SMILES	Arbovirus inh	YopH inh	RecA splice inh	Mtb H37Rv	Mtb bLac sens	others
Cc1ccc(Cn2ccc(NC(=O)c3nn(C)cc3[N+](=O)[O-])n2)cc1	-33	-25	-3.3	4%	0
Cc1oc(-c2ccc(Cl)cc2)nc1CN1CCCN(C(=O)c2ccco2)CC1	nt	nt	3.2	nt	?
Cn1c(CNC(=O)c2cccs2)nnc1SCC(=O)Nc1ccccc1	1	-20	0.4	-12%	-1
COc1cc(/C=N/NC(=O)C(N)=O)ccc1OCC(=O)N1C(C)CCCC1C (stereo not drawn)	6	nt	2.1	-5%	-4
CCc1nn(CC(=O)N2CCN(C)CC2)c(=O)c2cccn12	nt	nt	1.2	nt	-1
O=C(/C=C/c1ccc(Cl)c([N+](=O)[O-])c1)Nc1cccnc1	5	-33	0.0	-11%	-7
Cc1ccc(Nc2nc(N)nc(CSc3nccn3C)n2)cc1	2	-88	-0.4	-10%	0
CC1CN(CCOc2ccccc2[N+](=O)[O-])CC(C)O1 (stereo not drawn)	0	nt	-3.1	3%	1
N#CC1=C(N)N=C(SCc2cccc3ccccc23)C(C(N)=O)C12CCCCC2 (stereo not drawn)	-41	-13	-3.0	4%	70
CN(C)c1ccc(/C=C(/NC(=O)c2ccccc2)C(=O)NCCN2CCOCC2)cc1	nt	nt	-4.2	nt	-1
Clc1c(CSc2nc3ccccc3o2)nc2sccn12	17	-27	2.6	0%	-7	Arbovirus inh repeat=4
Cc1ccc(OCCNC(=O)/C=C/c2ccc([N+](=O)[O-])cc2)cc1C	7	-19	nt	-8%	2
CSc1nc(Cc2ccc(Cl)cc2)nc2ccccc12	1	-33	2.2	5%	-1
COc1ccc(CNC(=O)CCCn2nc(C)n3c(cc4sccc43)c2=O)cc1	nt	nt	1.0	nt	5
CC(=O)Nc1sc2c(c1C#N)CCCCC2	0	-13	-0.3	-10%	-6
Cc1nc(NC(=O)COc2ccccc2)sc1C(=O)Nc1cccc(Cl)c1	-6	-40	-2.7	-3%	-2
COc1ccccc1/C=C/C(=O)OCCCN(C)C	0	nt	-0.3	7%	27
NC(=O)CCC(NC(=S)Nc1ccccc1)C(=O)O (stereo not drawn)	nt	nt	1.1	8%	-2
Cc1cccc(CCNC(=O)CCc2nnc(CCc3ccccc3)o2)n1	2	nt	nt	9%	0
COc1ccccc1Nc1nc(C)cs1	13&2	-8&-11	-4.0&1.2	-6%&-7%	-12&-2
CCCNC(=O)c1ccc(COc2ccc(Cl)cc2)o1	nt	nt	1.9	nt	10
Cc1ccccc1OCC(=O)Nc1nnc(COc2ccccc2)s1	nt	nt	3.2	nt	-8
COc1cccc(C(=O)NC(=S)Nc2nnn(C)n2)c1	17	-23	0.8	2%	1
COc1ccc(Cc2cnc(N)s2)cc1	-8	nt	1.6	71%	91
COc1cc(/C=N/NC(N)=O)cc(Br)c1OCc1ccc(C)cc1	-8	-14	-1.8	0%	1

3 entries from above, arranged by molecular weight, descending:
SMILES	Arbovirus inh	YopH inh	RecA splice inh	Mtb H37Rv	Mtb bLac sens	others
Cc1ccc(OCCNC(=O)/C=C/c2ccc([N+](=O)[O-])cc2)cc1C	7	-19	nt	-8%	2
CSc1nc(Cc2ccc(Cl)cc2)nc2ccccc12	1	-33	2.2	5%	-1
CC(=O)Nc1sc2c(c1C#N)CCCCC2	0	-13	-0.3	-10%	-6

The listing picks up, repeating the 2 entries before the break.
SMILES	Arbovirus inh	YopH inh	RecA splice inh	Mtb H37Rv	Mtb bLac sens	others
COc1ccc(Cc2cnc(N)s2)cc1	-8	nt	1.6	71%	91
COc1cc(/C=N/NC(N)=O)cc(Br)c1OCc1ccc(C)cc1	-8	-14	-1.8	0%	1
Cc1ccc(/C=N/NC(=O)Cc2ccc(O)cc2)s1	nt	nt	2.1	nt	2
COCCN(C(=O)COC(=O)Cc1cccc(OC)c1)c1c(N)n(CC(C)C)c(=O)[nH]c1=O	nt	nt	0.2	nt	2
N/C(CSc1ccc(Cl)cc1)=N\NC(=O)c1ccncc1	15	nt	1.2	-2%	0
Nc1cc(=O)[nH]c(SCc2ccc(Cl)cc2)n1	-11	-21	0.7	-3%	-2
O=[N+]([O-])c1cccc(CSc2nnc(Cc3ccccc3)n2-c2ccc(F)cc2)c1	-13	-15	7.8	3%	-6
COc1ccc(CNc2nc(SCc3cc(=O)n4cc(Cl)ccc4n3)nc3ccccc23)cc1	10	8	4.7	-16%	3
CC1CC(C)CN(S(=O)(=O)c2ccc3c(c2)CCN3C(=O)CCC(=O)O)C1 (stereo not drawn)	nt	nt	-1.3	nt	6
O=C(O)CCC(=O)N1CCc2c([nH]c3ccccc23)C1C(F)(F)F (stereo not drawn)	nt	nt	3.3	nt	-2
O=C(COC(=O)COc1ccccc1)Nc1ccccc1OC(F)F	-3	-37	-1.9	-4%	-5

Screening results: PubChem, several laboratories

These rows are one share of the data. The share of hits here may be higher or lower than overall.
